Vaccinia inh: blocks a specific stage of Vaccinia orthopoxvirus infection | activity change (mCherry), % (concentration not given with the values) | Vaccinia-infected cells, mCherry/Venus stage reporter fluorescence; stronger effect = lower value; some inactives read as strong as hits | 89,000 compounds, 0.01% hits;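 active means mCherry past -33% and 40 or more points under the early reporter, replicates agreeing; inconclusive means past -33% without that gap or agreement; tested in A549 cells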;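 further: scaled between vehicle wells and reference inhibitor wells; 23 nL library stock went into each well; one replicate is shown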
Vaccinia inh Venus: further read-out of Vaccinia inh, marked with its call; activity change (Venus), %; measured here: Venus reporter, other viral stage;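 negative = less Venus signal; first of two replicates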
The depositor's hits bear a star; ? = inconclusive; . = not tested or not shown. This is a subset, so the mix of outcomes need not match the whole.

Start of the data: the first four entries, ahead of the listing:
SMILES | Vaccinia inh | Vaccinia inh Venus
C/C=C/c1ccc([C@H]2[C@@H](CO)N(C(=O)CC)[C@@H]2CNCC2CCCC2)cc1 | -11.3 | -8.4
CCC(=O)N1C[C@H](C)[C@H](OC)CN(C)C(=O)c2cc(NC(=O)CC(F)(F)F)ccc2OC[C@@H]1C | 11.7 | 17.6
CNC[C@H]1Oc2ccc(NS(=O)(=O)c3ccccc3)cc2C(=O)N([C@H](C)CO)C[C@@H]1C | 19.8 | 8.4
C[C@H]1CN([C@@H](C)CO)C(=O)CCCn2nncc2CO[C@@H]1CN(C)C(=O)OCc1ccccc1 | 8.9 | 11.8

All compounds of this part (from the top)
SMILES | Vaccinia inh | Vaccinia inh Venus
C/C=C/c1ccc([C@H]2[C@@H](CO)N(C(=O)CC)[C@@H]2CNCC2CCCC2)cc1 | -11.3 | -8.4
CCC(=O)N1C[C@H](C)[C@H](OC)CN(C)C(=O)c2cc(NC(=O)CC(F)(F)F)ccc2OC[C@@H]1C | 11.7 | 17.6
CNC[C@H]1Oc2ccc(NS(=O)(=O)c3ccccc3)cc2C(=O)N([C@H](C)CO)C[C@@H]1C | 19.8 | 8.4
C[C@H]1CN([C@@H](C)CO)C(=O)CCCn2nncc2CO[C@@H]1CN(C)C(=O)OCc1ccccc1 | 8.9 | 11.8
C[C@@H]1CCCCO[C@H](CN(C)C(=O)Nc2ccccc2)[C@H](C)CN([C@@H](C)CO)C(=O)c2cc(NS(C)(=O)=O)ccc2O1 | 5.2 | -3.6
C[C@H](CO)N1C[C@H](C)[C@@H](CN(C)Cc2ccccn2)Oc2ncc(C#C[C@@H](C)O)cc2C1=O | 23.5 | 15.0
CN(C)CCCNC(=O)[C@@H]1[C@@H](CO)[C@@H]2Cn3c(ccc(-c4ccncc4)c3=O)[C@H]1N2C(=O)CC1CC1 | 1.8 | 5.1
C[C@@H]1CN([C@@H](C)CO)C(=O)Cc2cc(NC(=O)Nc3ccc4c(c3)OCO4)ccc2O[C@@H]1CN(C)Cc1ccc(-c2ccccc2)cc1 | -7.9 | -5.9
CN1C(=O)c2cc(NS(=O)(=O)c3ccc(F)cc3)ccc2OC[C@H]2O[C@@H](CC(=O)O)CC[C@@H]21 | 10.5 | 15.0
Cn1cnc(S(=O)(=O)N[C@H]2C=C[C@@H](CC(=O)Nc3ccccc3)O[C@@H]2CO)c1 | 6.7 | 6.6
COc1ccc(S(=O)(=O)N(C)C[C@H]2Oc3c(NS(C)(=O)=O)cccc3C(=O)N([C@H](C)CO)C[C@H]2C)cc1 | 1.6 | 14.7
CO[C@H]1CN(C)C(=O)c2ccc(NS(=O)(=O)c3cn(C)cn3)cc2OC[C@H](C)N(C)C[C@H]1C | 18.1 | 8.9
CO[C@H]1CN(C)C(=O)c2ccc(NC(=O)C3CCC3)cc2OC[C@@H](C)N(Cc2cccnc2)C[C@H]1C | 1.7 | 1.8
CN1CCN(C(=O)C[C@H]2CC[C@@H]3[C@H](COc4ccc(NC(=O)c5cscn5)cc4C(=O)N3C)O2)CC1 | -1.1 | 7.1
O=C(NCC(F)(F)F)[C@@H]1[C@@H](CO)[C@@H]2Cn3c(ccc(-c4cccnc4)c3=O)[C@H]1N2Cc1ccccc1 | 14.2 | 4.7
C[C@@H]1CCCCO[C@@H](CN(C)S(=O)(=O)c2ccc(Cl)cc2)[C@@H](C)CN([C@@H](C)CO)C(=O)c2cc(NC(=O)C3CCCCC3)ccc2O1 | 5.4 | 17.8
CCCNC(=O)[C@@H]1[C@@H](CO)[C@@H]2Cn3c(ccc(C4=CCCCC4)c3=O)[C@H]1N2CCC | -0.6 | -1.2
COC(=O)C[C@H]1CC[C@@H]2[C@H](COc3ccc(NC(=O)Nc4cc(C)cc(C)c4)cc3C(=O)N2C)O1 | -11.3 | -5.7
O=C(CCN1CCCCC1)N[C@H]1CC[C@@H](CCn2cc(-c3ccccc3)nn2)O[C@H]1CO | 3.7 | 8.1
CN1CCN(C(=O)C[C@@H]2CC[C@H]3[C@H](COc4ccc(NC(=O)C5CCCC5)cc4C(=O)N3C)O2)CC1 | 23.7 | 9.5
C[C@@H]1CN([C@@H](C)CO)C(=O)c2cccc(NC(=O)c3cnccn3)c2O[C@H]1CN(C)C(=O)Nc1ccc(C(F)(F)F)cc1 | 5.3 | 4.5
O=S(=O)(c1ccc(F)cc1)N1CC[C@@H]2[C@@H](CO)Nc3ccc(-c4ccccc4F)cc3[C@@H]21 | -27.8 | -26.8
O=C(N[C@H]1CC[C@H](CCn2cc(C3(O)CCCC3)nn2)O[C@@H]1CO)C1CC1 | -22.3 | -19.2
CN1C(=O)c2cc(NC(=O)c3ccc(C(F)(F)F)cc3)ccc2OC[C@H]2O[C@H](CC(=O)O)CC[C@H]21 | -0.4 | -2.1
C[C@@H]1CN([C@@H](C)CO)C(=O)Cc2cc(NC(=O)C3CCCCC3)ccc2O[C@H]1CN(C)Cc1ccc(-c2ccccc2)cc1 | -5.5 | 2.7
CC(C)c1cn(CC[C@H]2CC[C@@H](NS(=O)(=O)Cc3ccccc3)[C@@H](CO)O2)nn1 | -0.8 | -2.3
CCNC[C@@H]1[C@H](c2ccccc2)[C@H](CO)N1C(=O)Cc1ccccn1 | 4.6 | 8.6
CC(=O)N1CC(=O)N2[C@H](CO)[C@@H](c3ccc(C#Cc4cccnc4)cc3)[C@H]2C1 | 11.7 | 12.0
C/C=C/c1ccc([C@H]2[C@H]3CN(S(=O)(=O)c4cccc(F)c4)CC(=O)N3[C@H]2CO)cc1 | 33.7 | 16.8
CNC[C@H]1OCCCC[C@H](C)Oc2ccc(NS(=O)(=O)c3ccccc3)cc2C(=O)N([C@@H](C)CO)C[C@H]1C | 1.2 | 4.2
C[C@H]1CN([C@@H](C)CO)C(=O)c2cc(NS(C)(=O)=O)ccc2O[C@@H]1CN(C)C(=O)Nc1ccc2c(c1)OCO2 | 17.3 | 3.0
O=C(C[C@H]1C=C[C@@H](NC(=O)C2CCC2)[C@@H](CO)O1)NC1CCCCC1 | 0.6 | -3.0
C[C@H]1CN([C@@H](C)CO)C(=O)c2cc(/C=C/c3ccccc3)cnc2O[C@@H]1CN(C)C(=O)c1ccccc1 | -18.3 | -19.8
COc1ccc(CN(C)C[C@@H]2Oc3ccc(NS(=O)(=O)c4cccs4)cc3C(=O)N([C@@H](C)CO)C[C@@H]2C)cc1 | 1.2 | 8.6
COc1cccc(CN2[C@@H](CO)[C@@H](c3ccccc3)C23CN(C(=O)C2CCOCC2)C3)c1 | 0.1 | 4.9
CCCNC(=O)[C@@H]1[C@@H](CO)[C@@H]2Cn3c(ccc(/C=C/c4ccccc4)c3=O)[C@@H]2N1CC | 12.5 | 5.7
CC=Cc1ccc2n(c1=O)C[C@@H]1[C@@H](CO)[C@H](C(=O)NCC3CC3)[C@H]2N1Cc1cccnc1 (mixture of isomers) | 3.1 | 4.0
COCC(=O)Nc1ccc2c(c1)C(=O)N(C)C[C@@H](OC)[C@@H](C)CN(Cc1ccccc1F)[C@@H](C)CO2 | -14.9 | -4.7
C[C@@H]1CN([C@@H](C)CO)C(=O)c2cc(NS(=O)(=O)c3ccc(Cl)cc3)ccc2O[C@@H](C)CCCCO[C@@H]1CN(C)S(=O)(=O)c1cccs1 | -26.7 | -23.3
CCCN1C[C@@H](C)[C@@H](OC)CN(C)C(=O)c2ccc(NC(=O)Nc3c(C)noc3C)cc2OC[C@@H]1C | 10.4 | 3.1
C[C@@H]1CN([C@@H](C)CO)C(=O)c2cccc(NC(=O)NC3CCCCC3)c2O[C@@H]1CN(C)Cc1ccncc1 | 3.6 | 3.7
Cc1cccc(S(=O)(=O)N2C[C@H]3[C@@H](c4ccccc42)[C@@H](CO)N3CC2CCCC2)c1 | -14.9 | -9.0
O=C(C[C@H]1CC[C@H]2[C@@H](COC[C@H](O)CN2Cc2ccccc2F)O1)NC1CCC1 | -3.1 | 1.7
C[C@@H]1CCCCO[C@H](CN(C)Cc2ccncc2)[C@H](C)CN([C@@H](C)CO)C(=O)c2cc(NS(=O)(=O)c3cccs3)ccc2O1 | 5.7 | 8.2
C[C@@H]1CN([C@@H](C)CO)C(=O)c2cc(NC(=O)Nc3cccc4ccccc34)ccc2O[C@@H]1CN(C)Cc1ccc(C(F)(F)F)cc1 | -13.9 | -2.2
C[C@H]1CN([C@@H](C)CO)C(=O)c2c(c3ccccc3n2C)-c2ccccc2CO[C@@H]1CN(C)Cc1ccc(-c2ccccc2)cc1 | -14.9 | -20.5
CCC(=O)N1C[C@@H](C)[C@H](OC)CN(C)C(=O)c2ccc(NC(=O)C3CC3)cc2OC[C@H]1C | 4.3 | 4.2
C[C@@H]1CN([C@@H](C)CO)S(=O)(=O)c2ccc(C#Cc3ccncc3)cc2O[C@H]1CN(C)C(=O)C1CCOCC1 | -26.1 | -11.2
COCC(=O)Nc1ccc2c(c1)C(=O)N(C)C[C@@H](OC)[C@H](C)CN(CCc1ccccc1)[C@@H](C)CO2 | -3.3 | 4.0
CNC[C@@H]1Oc2cc(C#CC3(O)CCCC3)ccc2S(=O)(=O)N([C@@H](C)CO)C[C@@H]1C | 1.5 | 2.0

The results go on.
SMILES | Vaccinia inh | Vaccinia inh Venus
O=C(C[C@@H]1C[C@@H]2c3cc(NC(=O)CC4CC4)ccc3O[C@@H]2[C@@H](CO)O1)NCc1cc(F)ccc1F | 0.6 | -0.7
Cc1cc(C(=O)Nc2cccc3c2O[C@H](CN(C)C(=O)Nc2ccccc2)[C@H](C)CN([C@@H](C)CO)C3=O)n(C)n1 | 2.5 | 9.5
CC(=O)N(C)C[C@H]1Oc2cc(C#C[C@H](C)O)ccc2S(=O)(=O)N([C@H](C)CO)C[C@H]1C | 8.8 | 8.0
O=C(N[C@@H]1CC[C@H](CCNS(=O)(=O)c2cccc(Cl)c2)O[C@H]1CO)c1ccncc1 | -0.4 | 8.5
Cc1ccc(S(=O)(=O)N[C@@H]2CC[C@H](CCNC(=O)C3CC3)O[C@@H]2CO)cc1 | 13.0 | 4.8
CCC(=O)N1CC[C@@H]2[C@@H](CO)N(C)c3ccc(-c4ccccc4)cc3[C@@H]21 | -19.6 | -27.0
O=C(C[C@H]1CC[C@H]2[C@@H](COC[C@@H](O)CN2C(=O)c2cccnc2)O1)NC1Cc2ccccc2C1 | 6.6 | 1.9
O=S(=O)(c1ccccc1)N1CCCCN2[C@H](CO)[C@H](c3ccc(C#Cc4ccccc4)cc3)[C@@H]2C1 | ? | .
CC(=O)Oc1ccccc1C(=O)OCO/N=[N+](\[O-])N1CCC[C@H]1C(=O)O | 26.5 | 0.3
COc1ccc(CN(C)C[C@H]2Oc3ccc(NC(=O)Nc4ccc(C(F)(F)F)cc4)cc3CC(=O)N([C@@H](C)CO)C[C@@H]2C)cc1 | -30.6 | -15.2
O=C(C[C@H]1CC[C@H](NC(=O)Nc2cc(F)ccc2F)[C@H](CO)O1)NCc1ccc2c(c1)OCO2 | -2.7 | -4.2
O=C(Nc1cccc(F)c1)N1CC(=O)N2[C@H](C1)[C@H](c1ccc(-c3ccccc3)cc1)[C@@H]2CO | -23.7 | -13.2
CO[C@H]1CN(C)C(=O)c2cc(NC(=O)Nc3ccccc3Cl)ccc2OC[C@H](C)NC[C@H]1C | -26.6 | -11.1
Cc1noc(C)c1S(=O)(=O)Nc1ccc2c(c1)CC(=O)N([C@@H](C)CO)C[C@@H](C)[C@H](CN(C)Cc1ccc(C(=O)Nc3ccccc3N)cc1)O2 | 15.9 | 7.7
C/C=C/c1cnc2c(c1)C(=O)N([C@@H](C)CO)C[C@H](C)[C@H](CN(C)S(=O)(=O)c1ccc(OC)cc1)O2 | 24.1 | 0.3
COCC(=O)N1[C@H](CO)[C@H](c2ccccc2)C12CN(C(=O)c1ccccc1)C2 | 2.7 | 0.2
CCN(C[C@@H]1[C@@H](c2ccc(C3=CCCCC3)cc2)[C@@H](CO)N1C(C)=O)C(C)=O | 5.4 | 16.8
COc1ccc(S(=O)(=O)N2CCC3(CC2)CN(C(=O)CN(C)C)[C@H](CO)c2c3c3ccc(OC)cc3n2C)cc1 | -22.4 | -16.7
C[C@H](O)C#Cc1ccc2c(c1)O[C@@H](CN(C)C(=O)c1ccccc1)[C@@H](C)CN([C@H](C)CO)S2(=O)=O | 12.1 | 9.6
Cc1noc(C)c1S(=O)(=O)Nc1ccc2c(c1)C(=O)N([C@H](C)CO)C[C@H](C)[C@H](CN(C)C(=O)Nc1ccccc1)OCCCC[C@@H](C)O2 | 31.1 | 17.3
COc1ccc(NC(=O)N(C)C[C@H]2Oc3ncc(C#CC(C)C)cc3C(=O)N([C@@H](C)CO)C[C@@H]2C)cc1 | 3.9 | -3.0
C[C@@H]1CN([C@H](C)CO)C(=O)c2cccc(NS(=O)(=O)c3cccs3)c2O[C@@H]1CN(C)Cc1ccc(Oc2ccccc2)cc1 | -2.7 | -12.4
CN(C)CC(=O)N[C@@H]1CC[C@@H](CCn2cc(C3CCCC3)nn2)O[C@@H]1CO | 7.8 | 20.5
C[C@@H]1CN([C@H](C)CO)C(=O)c2cc(NC(=O)CCCN(C)C)ccc2O[C@@H](C)CCCCO[C@@H]1CN(C)S(=O)(=O)c1ccc(Cl)cc1 | 22.8 | 5.8
C[C@H](CO)N1C[C@H](C)[C@@H](CN(C)C)Oc2ccc(NC(=O)CCC(F)(F)F)cc2C1=O | -3.9 | -8.1
C[C@H](CO)N1C[C@H](C)[C@@H](CN(C)C(=O)c2cccnc2)Oc2ncc(C#CCN(C)C)cc2C1=O | 13.0 | 1.9
C[C@H](CO)N1C[C@H](C)[C@H](CN(C)S(=O)(=O)c2ccccc2)Oc2c(NC(=O)NC3CCCCC3)cccc2C1=O | -8.5 | -6.7
C[C@H](CO)N1C[C@H](C)[C@@H](CN(C)S(=O)(=O)c2ccc(Cl)cc2)OCCCC[C@H](C)Oc2ccc(NC(=O)Cc3ccccc3)cc2C1=O | -22.9 | -14.0
C[C@H]1CN([C@@H](C)CO)C(=O)c2c(c3ccccc3n2C)-c2ccccc2CO[C@@H]1CN(C)C(=O)Nc1cccc(Cl)c1Cl | ? | .
C[C@H](CO)N1C[C@H](C)[C@H](CN(C)S(=O)(=O)c2cccc(F)c2)Oc2ncc(C#Cc3ccc(F)cc3)cc2C1=O | ? | .

High-throughput results (PubChem)
